# High-throughput results (PubChem)
# FEN1 inh: qHTS Assay for the Inhibitors of Human Flap endonuclease 1 (FEN1). 390,000 tested, 0.35% active. Potency, µM (series often up to 114 µM), for inactives: top-dose activity change, negative = inhibition, most hits filed as inhibitors. P39748. Recombinant FEN1 flap cleavage, fluorescence, 15 min; note: nearly all actives have a fitted effect of over 65% in size
# Target sequence (P39748 whole entry, looked up): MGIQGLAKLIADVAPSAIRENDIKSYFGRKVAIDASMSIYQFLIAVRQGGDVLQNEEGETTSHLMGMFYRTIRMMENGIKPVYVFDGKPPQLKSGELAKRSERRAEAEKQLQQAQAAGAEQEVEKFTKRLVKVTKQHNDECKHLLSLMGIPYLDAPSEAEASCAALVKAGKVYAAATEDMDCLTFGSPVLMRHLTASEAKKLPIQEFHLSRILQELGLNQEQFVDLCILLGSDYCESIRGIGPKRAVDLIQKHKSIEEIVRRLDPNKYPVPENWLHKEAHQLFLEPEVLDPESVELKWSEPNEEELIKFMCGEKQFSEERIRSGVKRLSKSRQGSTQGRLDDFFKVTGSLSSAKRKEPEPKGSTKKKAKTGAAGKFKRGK
#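 Reaction started by adding substrate (50 nM final) to 10 nM enzyme after 15 min room-temperature compound preincubation. Reads at 0 and 15 min, with data normalized and fitted to a four-parameter Hill equation.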
# N370S GC: qHTS Assay for Inhibitors and Activators of N370S glucocerebrosidase as a Potential Chaperone Treatment of Gaucher Disease; N370S GC spleen homogenate, 4MU-glucoside fluorescence; Lysosomal acid glucosylceramidase (Homo sapiens), P04062; Potency, µM (doses to about 59.4 µM), for the others: at the top dose activity change, negative = inhibition, hits mostly inhibitors; 330,000 tested, 0.092% active;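 note: 0% = full enzyme activity and -100% = no enzyme basal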
# * marks the source's active call; other numbers are inactive results; ? = inconclusive; . = no result given; & = joins results of further samples; [ ] = dose if it differs, or a comment. Calls come from the whole dose curve; as a rule, active = well fitted curve in the direction sought with a large enough effect; inconclusive = small, poorly fitted or top-dose-only effect, or another doubt; inactive = no such curve, though single readings can be large; an effect the other way counts as inactive or inconclusive. Unless noted, % is set by controls: 0 for no effect and ±100 for the full control effect; potency is the fitted concentration of half-maximal effect. A portion of the library, and most or all hits are left out here.
canonical_smiles	FEN1 inh	N370S GC
c1cc[n+]2c(c1)-c1cccc[n+]1CC2	.	-8%
CN1CCN(c2ccc([N+](=O)[O-])c(Sc3nncn3C)c2)CC1	1%	14%
Cc1cc(Cl)ccc1OCCCC(=O)NCc1cccs1	-6%	-2%
Cc1cccc(N2C(=O)NC(=O)/C(=C\c3ccc(N4CCOCC4)cc3)C2=O)c1	-3%	-5%
NCCCC[C@H](NC(=O)[C@H](Cc1ccccc1)NC(=O)[C@H](CCCN=C(N)N)NC(=O)[C@@H](N)Cc1ccc(O)cc1)C(N)=O	.	7%
O=C1CN=C(c2ccc(Br)cc2)c2oc3ccccc3c2N1	-4%	-3%
COc1cccc(C2(O)CCN(CC(=O)Nc3nc(C)cs3)CC2)c1	14%	2%
Cc1ccc(C(=O)c2cc(Br)ccc2N)cc1	-22%	2%
CC(C)(C)C(=O)O[C@H]1CC[C@@]2(C)C(=CC(=O)C3C2CC[C@]2(C)C(=O)CCC32)C1 (stereo partly specified)	-2%	.
CC1OC(OC2CC(O)C3(CO)C4C(O)CC5(C)C(C6=CC(=O)OC6)CCC5(O)C4CCC3(O)C2)C(O)C(O)C1O (stereo unspecified)	0%	.
C=C(C)C(Cc1c(OC)ccc(C(=O)/C=C/c2ccc(O)cc2)c1O)OO (stereo unspecified)	-23%	.
CCC12CCCN3CCC4(c5ccc(OC)c(O)c5N(C(C)=O)C4CC1)C32 (stereo unspecified)	.	-12%
CCOP(=S)(OCC)c1ccc(N(C)C)cc1	7%	10%
CN(C)C1=NC(N(C)C)=NP(N(C)C)(N(C)C)=N1	15%	-9%
COc1ccc(C(CC(=O)N2CCC3(CC2)OCCO3)NS(=O)(=O)c2ccc(F)cc2)cc1 (stereo unspecified)	-4%	-16%
OC12ONC(c3ccccn3)C1N1CCC2CC1 (stereo unspecified)	3%	2%
CCN(CC)c1ccc(N=Cc2c(O)n(-c3cc(OC)ccc3OC)c(=O)[nH]c2=O)cc1	5%	-5%
CCCCN1C(=O)C(C2c3ccccc3C(=O)N2Cc2ccccc2)C(=O)NC1=S (stereo unspecified)	-5%	9%
CCC(=Nc1ccc(OC)cc1OC)c1c(O)n(C)c(=O)n(C)c1=O	-3%	4%
CCCNC(=O)N1[C@H]2CC[C@@H]1C(C(=O)OC)=C(c1ccc3ccccc3c1)C2	2%	.
COc1cccc(O)c1CN1CCCC(C(=O)c2sccc2C)C1 (stereo unspecified)	-15%	-24%
Cc1ccc(/C=C2/C(=O)NC(=O)N(CCc3ccc(F)cc3)C2=O)s1	-6%	4%
COc1ccc(C[C@@H]2NC[C@H](O)[C@@H]2OC(C)=O)cc1	.	-4%[21.6 µM]
COc1ccc(CN2C(=O)NC(=O)/C(=C\c3ccc(OC)c(OC)c3OC)C2=O)cc1	-7%	6%
Clc1ccc2c(c1)C(c1ccccc1Cl)=NCc1nnc(N3CCN(CCOc4ccccc4)CC3)n1-2	0%	?
C[C@@]12CC(c3ccoc3)OC(=O)C1CC[C@@]1(C)C2C2C=C[C@@]1(O)C(=O)O2 (stereo partly specified)	.	2%
COc1ccccc1CN1CCN(C(=O)Cc2ccccc2)CC1	3%	1%
S=C(NC1CCCCC1)N1CCC(c2cnc[nH]2)CC1	14%	?
Cc1ccc(Cn2cccc(C(=O)Nc3ccc(C)c(Cl)c3)c2=O)cc1	-5%	.
CC(C)Oc1ccc(C2C(C#N)=C(N)Oc3c2c(=O)oc2ccccc32)cc1 (stereo unspecified)	-6%	-12%
COC(=O)C1=C(c2cccc(OCc3ccccc3)c2)C[C@@H]2CC[C@H]1N2C(=O)NCc1ccc(N(C)C)cc1	-17%	.
C[C@@H]1O[C@H](O[C@@H]2C[C@@H](O)[C@]3(CO)[C@H]4[C@H](O)C[C@]5(C)[C@@H](C6=CC(=O)OC6)CC[C@@]5(O)[C@@H]4CC[C@]3(O)C2)[C@@H](O)[C@H](O)[C@H]1O	.	-1%
CN1CCc2nc3ccc(F)cc3c(C(N)=O)c2C1	-3%	5%
O=[N+]([O-])c1ccc(C2C3C(c4ccccc4)=NC4(CCCC4)N32)cc1 (stereo unspecified)	6%	2%
Cc1ccc2c(c1)c(=O)c1c3n2CCN(CC#N)C3CC1 (stereo unspecified)	-2%	-4%
COc1ccccc1N1CCN(C2CCCN(C(=O)COc3ccccc3Cl)C2)CC1 (stereo unspecified)	-14%	-4%
O=C(C1CC(=O)N(C2CCCCCCC2)C1)N1CCC2(CC1)OCCO2 (stereo unspecified)	0%	-15%
C#CCN1C(C)=C(C(=O)CCO)[C@@H](c2cccc(-n3oo3)c2)C(C(=O)OC)=C1C	.	24%
CC(=O)NC(Cc1ccc(N(CCCl)CCCl)cc1)C(=O)O (stereo unspecified)	-12%	8%
COC(=O)C1=C(c2ccc(F)cc2OCc2ccccc2)C[C@@H]2CC[C@H]1N2C(=O)N1CCCCC1	-3%	.
Cc1nccn1Cc1ccc(Cl)nc1	-1%	9%
C[C@]12CCC(=O)C=C1C=CC1C2CC[C@]2(C)C(=O)CCC12 (stereo partly specified)	1%	.
CCCCc1nc2ccccc2c(=O)n1-c1ccc(Cl)cc1[N+](=O)[O-]	-14%	5%
O=c1ccc2[nH]cc(C3=CCNCC3)c2[nH]1	.	-4%
CCC[N+]12CCC(CC1)C(C(O)(c1ccccc1)c1ccccc1)C2 (stereo unspecified)	-4%	2%
CCc1ccccc1NC(=O)CSc1nnc([C@@H](N)Cc2c[nH]c3ccccc23)o1	-8%	-5%
CCOC(=O)CBr	.	4%
O=C(COC(=O)Cc1ccccc1)Nc1nnc(-c2ccccc2)o1	-9%	-5%
Cc1cc(NC(=O)COC(=O)c2c(C)nn(Cc3ccccc3Cl)c2Cl)no1	-12%	2%
Cc1cccc(OCC(=O)N2CCN(Cc3cc(=O)n4nc(-c5ccccc5Cl)sc4n3)CC2)c1	2%	.
O=C1NC(=O)C2(Cc3ccccc3N3CCCC32)C(=O)N1 (stereo unspecified)	-18%	0%
Cc1cc(OC(C)C(=O)NCc2ccncc2)c2c3c(c(=O)oc2c1)CCC3 (stereo unspecified)	-11%	-7%
Cc1cccc(CN2CCN(CC(=O)N3CCC4(CC3)OCCO4)C2=O)c1	-13%	-2%
Cc1ncc(CN2CCCC(C(=O)c3cccc(Cl)c3)C2)s1 (stereo unspecified)	-5%	-4%
Cc1oc2ccc(OC(=O)N(C)C)cc2c1C(=O)OC(C)C	-2%	-4%
C[C@]12CC[C@H](O)CC1=CCC1C2CC[C@@]2(C)C1CC[C@@H]2OCc1ccccc1 (stereo partly specified)	0%	.
CC(=O)Nc1ccccc1C(=O)OCC(=O)c1ccccc1Cl	-2%	13%
O=C1NC(=O)[C@]2(Cc3ccccc3N3CCN(c4ccccc4)CC32)C(=O)N1c1ccccc1 (stereo partly specified)	-4%	0%
C[C@@H]1O[C@@H](OC2CC(O)C3(CO)C4C(CCC3(O)C2)C2(O)CCC(C3=CC(=O)OC3)C2(C)C[C@H]4O)[C@H](O)[C@H](O)[C@H]1O (stereo partly specified)	.	9%
CS(=O)(=O)N1CCCC(C(=O)N2CCC3(CC2)OCCO3)C1 (stereo unspecified)	-1%	6%[12.8 µM]

# Overlap with the part before: 4 entries; new compounds follow.
canonical_smiles	FEN1 inh	N370S GC
CC(=O)Nc1ccccc1C(=O)OCC(=O)c1ccccc1Cl	-2%	13%
O=C1NC(=O)[C@]2(Cc3ccccc3N3CCN(c4ccccc4)CC32)C(=O)N1c1ccccc1 (stereo partly specified)	-4%	0%
C[C@@H]1O[C@@H](OC2CC(O)C3(CO)C4C(CCC3(O)C2)C2(O)CCC(C3=CC(=O)OC3)C2(C)C[C@H]4O)[C@H](O)[C@H](O)[C@H]1O (stereo partly specified)	.	9%
CS(=O)(=O)N1CCCC(C(=O)N2CCC3(CC2)OCCO3)C1 (stereo unspecified)	-1%	6%[12.8 µM]
COC(=O)c1cncn1C(C)c1ccccc1 (stereo unspecified)	1%	3%
Cc1ccccc1-n1c(-c2ccc([N+](=O)[O-])cc2)nc2ccccc2c1=O	-4%	-4%
CCCCSP(=O)(SCCCC)SCCCC	.	5%
O=C1NC(=O)C2(Cc3ccccc3N3CCCC32)C(=O)N1c1cccc(Cl)c1 (stereo unspecified)	2%	-2%
COC(=O)c1cc2c(s1)=NC=NP=2(N1CCOCC1)N1CCOCC1	-2%&-4%	9%
O=C1CCC[C@H]2[C@H]3CCCN4CCCC(=CN12)[C@@H]34	.	5%
COc1ccc2c(CN3CC=C(c4ccccc4)CC3)cc(=O)oc2c1	3%	-6%
Cc1nn(Cc2ccccc2Cl)c(Cl)c1C(=O)O	-16%	3%
CCC1(C(=O)c2ccccc2)C2c3ccccc3OC(=O)C21C(C)=O (stereo unspecified)	8%	5%
C[C@]12CCC3C(CC[C@H]4C[C@@H](O)CC[C@]34C)C1C[C@@H](O)C2=O (stereo partly specified)	6%	.
CCCCCCNC(=O)N[C@@H](Cc1ccc(O)cc1)C(=O)NCCC[C@H]1CN2C(=NC[C@H]2C)N1CC1CCC1	-6%	-17%
COc1ccc(CC(=O)N2CCN(C)CC2)cc1OC	4%	1%
CC1CCCN(C(=O)CCl)C1 (stereo unspecified)	0%	2%
COC(=O)C1=C(c2ccccc2OCc2ccccc2)C[C@@H]2CC[C@H]1N2C(=O)NCCc1ccc(F)cc1	-3%	.
O=C1CC(c2cccnc2)=NN1c1ccc(Cl)cc1Cl	6%	-9%
Cc1cc(/C=C2\C(=O)NC(=O)N(Cc3ccccc3)C2=O)c(C)n1C1CC1	3%	13%
COc1ccc2c3c1OC1C(=O)CC[C@@]4(O)[C@@H](C2)N(C)CC[C@]314 (stereo partly specified)	16%	.
OC(c1cccc(Cl)c1)(c1cccc(Cl)c1)C1CN2CCC1CC2 (stereo unspecified)	14%	5%
O=C(COC(=O)c1ccc(O)cc1)Nc1ccc(Cl)cc1C(=O)c1ccccc1	-11%	4%
CCCCCc1cc(O)c2c3c(c(=O)oc2c1)CN(C)CC3	1%	-9%
Cn1c(O)c(/C=N/c2ccccn2)c(=O)n(C)c1=O	-1%	3%
CCCCC/C=C\C/C=C\C/C=C\C/C=C\CCCC(N)=O	.	0%&-1%&-5%
CC(N)c1cccc(Cl)c1Cl (stereo unspecified)	-5%	?
Cn1c(=O)c2nncnc2n(C)c1=O	-7%	15%
CC#C[C@]1(O)CC[C@H]2C3C=C(C)C4=CC(=O)C=C[C@]4(C)[C@H]3[C@@H](O)C[C@@]21C (stereo partly specified)	.	-6%
O=c1[nH]oc2c1CCNC2	8%	-7%
COCCCn1c(N)c(C(=O)OCCOC)c2nc3ccccc3nc21	-1%	?
Cc1ccccc1C(=O)NC(Oc1ccccc1)C(Cl)(Cl)Cl (stereo unspecified)	-2%	1%
Cc1cccc(-n2c(O)c(C=NC34CN5CN(CN(C5)C3)C4)c(=O)[nH]c2=O)c1	10%	13%
Cc1cccc(-c2nc3ccccc3c(=O)n2-n2cccc2)c1	-7%	-6%
Oc1ccc2c(c1)[C@@]13CCCCC1[C@@H](C2)N(CC1CCC1)CC3 (stereo partly specified)	.	-14%
CS(=O)(=O)NCc1nnc2n1-c1ccc(Cl)cc1C(c1ccccc1)=NC2	-3%	9%
Clc1ccc2c(c1)C(c1ccccc1Cl)=NCc1nnc(Br)n1-2	6%	9%
COc1ccc(O)c(C(C)(C)C)c1	1%	5%&11%
O=C(CN1CCOCC1)NCC(=O)Nc1ccc(Br)cc1C(=O)c1ccccc1	-2%	-7%
O=C1C2CC=CCC2C(=O)N1SC(Cl)(Cl)Cl (stereo unspecified)	.	-1%&-5%
CCN1C[C@@]2(COC)CCC(OC)[C@]34C5C[C@]6(O)[C@@H](OC)C[C@](OC(C)=O)(C([C@H](OC)C23)[C@H]14)C5[C@H]6OC(=O)c1ccc(OC)cc1 (stereo partly specified)	.	-5%
COC(=O)c1ccc(COc2cc(C)cc3oc(=O)c4c(c23)CCCC4)o1	-24%	?
C=CCC1(CN2CCCC2=O)C(=O)NC(=O)NC1=O	-10%	12%
CCOC(=O)C1(c2ccccc2)CCN(Cc2cccc(C(=O)O)c2)CC1	0%	11%

# Another view of some results above.
# Each structure is followed by: FEN1 inh | N370S GC
Cc1cccc(-n2c(O)c(C=NC34CN5CN(CN(C5)C3)C4)c(=O)[nH]c2=O)c1
→ 10% | 13%
Cc1cccc(-c2nc3ccccc3c(=O)n2-n2cccc2)c1
→ -7% | -6%

# (continued)
canonical_smiles	FEN1 inh	N370S GC
CCOC(=O)N(CC)c1ccc(C(O)(C(=O)OCC)C(F)(F)F)cc1 (stereo unspecified)	-2%	-8%
COC(=O)C1=C(c2ccc(Cl)c(C(F)(F)F)c2)C[C@@H]2CC[C@H]1N2C(=O)N1CCCC1	8%	.
Cc1cc(Oc2ccc(C(F)(F)F)cc2[N+](=O)[O-])c2c3c(c(=O)oc2c1)CCC3	-4%	2%
CC/C=C\C/C=C\C/C=C\C/C=C\C/C=C\CCCC(=O)NCCCC(=O)O	.	12%
CC1(C)C2([N+](=O)[O-])CN3CN(C2)CC1([N+](=O)[O-])C3	13%	7%
CC(C)c1ccc(NC(=O)CSc2nnc(OC(=O)N(C)C)n2C2CC2)cc1	-1%	-6%
CNC(=S)NC1CC2CCCC(C1)N2CC(C)C (stereo unspecified)	-10%	-1%
Cc1ncc(CN2CC=C(c3ccccc3)CC2)c(N)n1	.	-2%
